# Assay outcomes (PubChem BioAssay)
# Cruzain inh noDet – inhibitors of Trypanosoma cruzi cruzain without detergent; Potency, µM, for inactives: max response, negative = inhibition, usual class: inhibitors; P25779; hit rate 2.3% among 200,000; purified cruzain, Z-FR-AMC fluorescence, no detergent;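 also: plate controls were enzyme without inhibitor for no effect and buffer without enzyme for full effect; nearly all actives have a fitted effect of over 40% in size; top concentration of the series not given in the record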
# Target sequence (P25779 123-467 limits assumed): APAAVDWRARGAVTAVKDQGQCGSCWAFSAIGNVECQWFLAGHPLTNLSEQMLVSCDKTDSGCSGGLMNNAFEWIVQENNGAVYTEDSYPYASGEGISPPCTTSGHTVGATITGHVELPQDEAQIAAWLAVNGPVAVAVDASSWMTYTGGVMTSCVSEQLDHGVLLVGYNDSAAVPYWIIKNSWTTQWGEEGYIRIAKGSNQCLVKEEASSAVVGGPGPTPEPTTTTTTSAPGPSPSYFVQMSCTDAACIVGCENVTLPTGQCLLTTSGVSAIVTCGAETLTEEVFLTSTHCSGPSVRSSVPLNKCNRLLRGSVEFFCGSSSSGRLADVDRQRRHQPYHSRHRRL
#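 Detergent-free condition (0.00005% Triton X-100) in acetate buffer pH 5.5 with DTT. 1.5 nM enzyme and compound were pre-mixed 15 min, then 2 uM Z-FR-AMC substrate added; reaction progress from fluorescence change between first and third reads (60 s).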
# SARS PLpro yeast – blocks SARS-CoV papain-like protease in a yeast assay. hit rate 0.19% among 330,000. Potency, µM (top dose mostly 32.9 µM), for the others: at the highest dose activity, positive = growth rescue. S. cerevisiae expressing SARS-CoV PLpro, growth rescue; control for the full effect not named in the record; active means well fitted rising curve with a large enough effect; inconclusive means small, poorly fitted or top-dose-only effect; inactive means no such curve, though single readings can be large or run the other way; also: 0% is about no effect; nearly all actives have a fitted effect of over 55% in size; growth read by luminescence after 48 h
# RE007 growth inh – less growth of the S. pombe RE007 Vpr strain; S. pombe RE007 Vpr strain, BacTiter-Glo ATP luminescence, 24 h; control for the full effect not named in the record; Potency, µM (titrated, usually from 92.2 µM), for inactives: at the highest dose activity change, negative = less growth; AID 651644; hit rate 0.21% among 360,000; active = well fitted falling curve with a large enough effect; inconclusive = small, poorly fitted or top-dose-only effect; inactive = no such curve, though single readings can be large or run the other way;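 also: % is scaled to controls: 0 for no effect and ±100 for the full control effect; nearly all actives have a fitted effect of over 50% in size; the assay follows cell death caused by Vpr and the record does not say whether a fall means rescue or toxicity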
#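 Fission yeast RE007 carrying one integrated HIV-1 vpr copy, seeded at OD 0.01 in PMG+AL medium with 23 nL pinned compound. Grown 24 h at 30 degrees; viability read by BacTiter-Glo luminescence after 5 min.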
# StopGo reporter – lowers the luciferase signal of an FMDV 2A StopGo reporter. Potency, µM (titrated, usually from 57.9 µM), without a hit: at the top dose signal change, negative = less light. hit rate 1.2% among 410,000. AID 1159524. human cells with a luciferase reporter of 2A StopGo recoding; control for the full effect not named in the record; active = well fitted falling curve with a large enough effect; inconclusive = small, poorly fitted or top-dose-only effect; inactive = no such curve, though single readings can be large or run the other way; tested in HEK293T cells; also: % is scaled to controls: 0 for no effect and ±100 for the full control effect; nearly all actives have a fitted effect of over 45% in size; luciferase light after 4 h
# Cruzain Triton – blocks cruzain activity in presence of Triton detergent; P25779; Potency, µM, without a hit: max response, negative = inhibition, hits mostly inhibitors; purified cruzain, Z-FR-AMC fluorescence, 0.01% Triton; hit rate 0.43% among 200,000;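 also: plate controls were neutral wells for no effect and buffer without enzyme for full effect; nearly all actives have a fitted effect of over 40% in size; top concentration of the series not given in the record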
#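 15 min RT preincubation of 1.5 nM cruzain with compound, then 2 uM Z-FR-AMC added; kinetic AMC fluorescence, 60 s delta. Triton X-100 0.01%, pH 5.5.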
# Marburg entry inh – Marburg virus entry inhibition; Marburg virus pseudotyped entry inhibition, cell reporter; control for the full effect not named in the record; about a third of the inactives were read at about 46 µM; hit rate 1.8% among 300,000; Potency, µM (top dose mostly 37.8 µM), for inactives: at the top dose activity change, negative = inhibition, most hits filed as inhibitors; active = well fitted inhibition curve with a large enough effect; inconclusive = small, poorly fitted or top-dose-only effect, or effect the other way; inactive = flat fitted curve, though single readings scatter; tested in HEK293 cells; about a fifth of its hits are not listed in these tables; also: % is scaled to controls: 0 for no effect and ±100 for the full control effect; luciferase read-out
# NS1 function inh – influenza NS1 inhibition; S. cerevisiae slowed by influenza A NS1, growth recovery by OD600; Potency, µM (series often up to 46.1 µM), inactives show at the highest dose activity, positive = more growth; hit rate 0.4% among 270,000; active means well fitted rising curve with a large enough effect; inconclusive means small, poorly fitted or top-dose-only effect; inactive means no such curve, though single readings can be large or run the other way; also: nearly all actives have a fitted effect of over 50% in size
#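 Growth recovery, yeast-based: influenza A NS1 expressed in S. cerevisiae causes slow growth, and suppressors are detected by OD600. The parent strain without NS1 is used as positive control.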
# Lassa entry inh – inhibitors of Lassa virus binding or cell entry. Lassa virus pseudotype entry inhibition, cell reporter; control for the full effect not named in the record. Potency, µM (highest dose often 37.9 µM), without a hit: at the top dose activity change, negative = inhibition, usual class: inhibitors. hit rate 1.2% among 300,000. AID 540256; active means well fitted inhibition curve with a large enough effect; inconclusive means small, poorly fitted or top-dose-only effect, or effect the other way; inactive means flat fitted curve, though single readings scatter; tested in HEK293 cells; also: % is scaled to controls: 0 for no effect and ±100 for the full control effect; nearly all actives have a fitted effect of over 50% in size; luciferase read-out
# * marks the source's active call; other numbers are inactive results; u = inconclusive; x = not tested or not shown; & = joins results of further samples; [ ] = another dose, or the depositor's remark. Unless noted, calls follow the shape of the dose curve; as a rule, active = well fitted curve in the direction sought with a large enough effect; inconclusive = small, poorly fitted or top-dose-only effect, or another doubt; inactive = no such curve, though single readings can be large; an effect the other way counts as inactive or inconclusive. Potency is read from the fitted curve at half-maximal effect. Compounds as they come; any-hit rate near 4.5%.
No.	mol	Cruzain inh noDet	SARS PLpro yeast	RE007 growth inh	StopGo reporter	Cruzain Triton	Marburg entry inh	NS1 function inh	Lassa entry inh
1	O=C(Nc1cccc(C(F)(F)F)c1)c1ccc2nc(N3C(=O)CCC3=O)sc2c1	u	-5%	-4%	-19%	-7.2%	-8%	-13%	-2%
2	COC(=O)c1ccc(CNC(=O)c2cc(COc3cncc(Cl)c3)on2)cc1	x	-10%	-5%	-19%	x	-19%[46.1 µM]	-7%	-18%[46.1 µM]
3	CCCCn1c(=O)c(CCC(=O)OCC(=O)NC(C)c2ccccc2)nc2ccccc21 (configuration not stated)	x	0%	5%	-8%	x	u	-9%	-22%
4	CCOC(=O)c1sc2nc(CC(=O)OC)nc(N3CCN(c4ccccn4)CC3)c2c1C	24%	-21%	-7%	x	-12%	u	-50%	-7%
5	CCC(=O)Nc1cccc(C(=O)/C=C/c2ccc(F)cc2)c1	x	-5%	-28%	-25%	x	15µM*	-62%	u
6	CCn1c(=O)cc(SCC(=O)NCCc2cc(OC)ccc2OC)c2ccccc21	-2%	x	x	-18%	-1.0%	-9%[46.1 µM]	x	-7%[46.1 µM]
7	O=C(NNC(=O)C1C2CCC(C2)C1C(=O)O)c1ccc(Br)o1 (configuration not stated)	15%	2%	x	x	-1.1%	4%	17%	20%
8	COc1ccc(CCNC(=O)CSc2nc(N)c3c(C)c(C)oc3n2)cc1OC	-15%	-2%	17%	-7%	-0.5%	0%	-2%	1%
9	COC(=O)C(CC(=O)c1ccc(Br)cc1)n1nc(C)cc1C (configuration not stated)	x	-17%	28µM*	-9%	x	8%[46.1 µM]	6%	-14%[46.1 µM]
10	Cc1ccnn1CC(=O)N/N=C/c1cn[nH]c1-c1ccc(F)cc1	x	0%	-15%	-4%	x	x	0%	x
11	COc1ccc2nc(NC3=NC(c4ccccc4)CC(=O)N3)nc(C)c2c1 (configuration not stated)	u	-5%	2%	-26%	-19%	-17%	6%	u
12	CCOC(=O)c1c(NC(=O)c2nn(CC)cc2Br)c(C#N)cn1-c1ccccc1	-1%	1%	-2%	x	-5.0%	u	8%	u
13	CN(NS(C)(=O)=O)c1ncc(C(F)(F)F)cc1Cl	x	0%	-11%	-18%	x	13%[46.1 µM]	x	-1%[46.1 µM]
14	Cc1ccc(C(=O)CSc2nnc(-c3ccco3)n2C)cc1	x	1%	15%	20%	x	u	-6%	14%
15	Cc1ccc(C2=NN(C(=O)COc3ncnc4ccccc34)C(c3ccco3)C2)cc1 (configuration not stated)	x	3%	1%	-19%	x	u	x	u
16	COc1ccc2[nH]c(=O)c(CN(C(=O)c3ccncc3)C(C)(C)C)cc2c1	-8%	-5%	20%	-23%	-4.1%	0%	5%	10%

# Some of the entries above in a different format.
(11) COc1ccc2nc(NC3=NC(c4ccccc4)CC(=O)N3)nc(C)c2c1 (configuration not stated)
  Cruzain inh noDet: u
  SARS PLpro yeast: -5%
  RE007 growth inh: 2%
  StopGo reporter: -26%
  Cruzain Triton: -19%
  Marburg entry inh: -17%
  NS1 function inh: 6%
  Lassa entry inh: u
(12) CCOC(=O)c1c(NC(=O)c2nn(CC)cc2Br)c(C#N)cn1-c1ccccc1
  Cruzain inh noDet: -1%
  SARS PLpro yeast: 1%
  RE007 growth inh: -2%
  StopGo reporter: x
  Cruzain Triton: -5.0%
  Marburg entry inh: u
  NS1 function inh: 8%
  Lassa entry inh: u

# Next section
No.	mol	Cruzain inh noDet	SARS PLpro yeast	RE007 growth inh	StopGo reporter	Cruzain Triton	Marburg entry inh	NS1 function inh	Lassa entry inh
17	O=C(COc1ccc(Br)cc1Br)NC1CCS(=O)(=O)C1 (configuration not stated)	x	-5%	4%	u	x	u	x	-27%
18	Cc1ccc(NC(=O)CN(C)C(=O)COC(=O)CCS(=O)(=O)c2ccc(C)cc2)cc1	x	-2%	-16%	-24%	x	5%	-3%	-2%
19	O=C(CC1CS(=O)(=O)CC1CC(=O)Nc1ccc2c(c1)OCCO2)Nc1ccc2c(c1)OCCO2 (configuration not stated)	x	1%	-7%	u	x	x	3%	x
20	Cc1cc(C)n2nc(-c3sccc3-n3c(C)ccc3C)cc2n1	7%	-16%	-16%	10%	-3.4%	-21%	14%	-6%
21	Fc1ccc(-c2nnc(NC3=NCCCCC3)o2)cc1	-6%	-8%	u	10µM*	1.3%	u	-10%	1µM*
22	CC1(C)OC(=O)C(=NNc2ccc(C(=O)O)cc2)C(=O)O1	x	1%	18%	-11%	x	18%	6%	13%
23	O=C(c1cc2ccccc2oc1=O)N1CCCCCCC1	x	2%	7%	4%	x	20%	7%	u
24	CC(C)OCCCNC(=O)COc1ccc2oc3c(c2c1)CCCC3	x	-11%	-1%	-1%	x	-4%[46.1 µM]	-36%	-11%[46.1 µM]
25	CCOc1ccccc1CNS(=O)(=O)c1ccc2[nH]c(=O)ccc2c1	-10%	x	x	-14%	-1.1%	x	x	u
26	Cc1ccc(NCC(=O)Nc2cccc(S(=O)(=O)N(C)C)c2)c(Cl)c1	-5%	-7%	-3%	-9%	-4.2%	u	-5%	u
27	O=c1ccc(S(=O)(=O)N2CCC(Cc3ccccc3)CC2)c[nH]1	-14%	u	10%	u	4.9%	-24%	-4%	u
28	CCN=C1SC(CC(=O)NC(C)C)C(=O)N1CC (configuration not stated)	4%	5%	21%	1%	4.8%	3%[46.1 µM]	5%	-14%
29	O=C(Nc1ccccc1Cl)c1cccc(COc2cc(Cl)ccc2Cl)c1	-14%	u	9%	40%[activator]	0.3%	-5%	0%	u
30	Cc1ccc(C)c(SCC(=O)N(C)CC(=O)Nc2ccc(N3CCOCC3)cc2)c1	x	0%	-16%	-22%	x	1%[46.1 µM]	x	-30%
31	CC1(C)C2CCC1(C)C(OC(=O)C[n+]1ccccc1)C2 (configuration not stated)	x	0%	-1%	-3%	x	x	-4%	x
32	CN1CCN(C(=O)c2cccc(COc3cc(Cl)ccc3Cl)c2)CC1	11%	-5%	-14%	34%[activator]	-2.2%	u	-10%	29%

# Record cards, from the list above.
# Cc1ccnn1CC(=O)N/N=C/c1cn[nH]c1-c1ccc(F)cc1 reads Cruzain inh noDet = x; SARS PLpro yeast = 0%; RE007 growth inh = -15%; StopGo reporter = -4%; Cruzain Triton = x; Marburg entry inh = x; NS1 function inh = 0%; Lassa entry inh = x
# Cc1ccc(NC(=O)CN(C)C(=O)COC(=O)CCS(=O)(=O)c2ccc(C)cc2)cc1 reads Cruzain inh noDet = x; SARS PLpro yeast = -2%; RE007 growth inh = -16%; StopGo reporter = -24%; Cruzain Triton = x; Marburg entry inh = 5%; NS1 function inh = -3%; Lassa entry inh = -2%

# Next part
No.	mol	Cruzain inh noDet	SARS PLpro yeast	RE007 growth inh	StopGo reporter	Cruzain Triton	Marburg entry inh	NS1 function inh	Lassa entry inh
33	Cc1cc(C(=O)N/N=C/C=C/c2ccccc2[N+](=O)[O-])c(C)o1	x	-2%	-12%	-8%	x	x	x	u
34	CCOc1ccc(NC(=O)NNC(=O)C(C)Oc2ccccc2OC)cc1 (configuration not stated)	x	-1%	-6%	-3%	x	11%	4%	1%
35	Cc1ccc(N(CC(=O)Nc2ccc(C)c(F)c2)S(=O)(=O)c2c(C)n[nH]c2C)cc1	u	x	x	-25%	-10%	-9%[46.1 µM]	x	-23%[46.1 µM]
36	COC(=O)c1cccc(NC(=O)CSc2nnnn2C)c1	3%	6%	7%	53%[activator]	-0.3%	-3%[46.1 µM]	3%	11%
37	C/C(=N\NC(=O)c1csc(C)c1C)c1ccc(C)s1	-5%	7%	1%	40%[activator]	-5.5%	-2%	6%	3%
38	Cc1cccc(NC(=O)CSc2nc3c(sc4ccccc43)c(=O)n2CCCC(=O)NC2CCCC2)c1	1%	x	x	-15%	2.6%	2%[46.1 µM]	x	-1%[46.1 µM]
39	CCOc1ccc(CNC(=O)CCCn2c(=O)c3cccn3c3ccccc32)cc1	25%	x	x	-9%	-4.7%	x	x	u
40	O=C(CCl)Nc1ccc(Oc2cnc3ccccc3n2)cc1	8%	10µM*	9%	20µM*	2.9%	u	u	21µM*
41	Cc1ccccc1-c1nc(CS(=O)(=O)CC(=O)N2CCN(c3ccccc3)CC2)c(C)o1	u	x	x	u	-2.9%	-14%[46.1 µM]	x	-22%[46.1 µM]
42	CCOc1ccc(S(=O)(=O)N2CCCC(C(=O)NCc3cccnc3)C2)cc1 (configuration not stated)	x	-6%	8%	-9%	x	-12%	-1%	-7%
43	CN(Cc1cccs1)C(=O)COc1cccc(-n2cnnn2)c1	-2%	-2%	-1%	-11%	-2.2%	-15%	-8%	0%
44	O=c1[nH]c(=O)n([C@H]2C[C@H](O)[C@@H](CO)O2)cc1Br	5%&4%&1%	-9%	-7%	-1%	3.6%&2.8%&6.1%	21%&9%&9%&9%&9%&9%&9%&9%	0%	-3%
45	Cc1onc(-c2c(F)cccc2Cl)c1C(=O)NCCO	x	0%	-2%	9%	x	u	x	0%[46.1 µM]
46	COc1ccc(/C=C/C(=O)NC(=S)N2CCN(c3ccccn3)CC2)cc1	x	-1%	-12%	29%	x	x	-1%	x
47	Cc1nnc(SCCn2c(N(C)Cc3ccccc3)nc3c2c(=O)[nH]c(=O)n3C)s1	-1%	8%	-6%	-17%	1.4%	0%	-1%	x
48	Cc1cc(NC(=O)CCc2ccc(C)o2)no1	-1%	5%	3%	6%	4.1%	23%	-4%	8%
49	O=C(NCc1ccccc1F)C1CCCN(C(=O)NC2CCCCC2)C1 (configuration not stated)	5%	-3%	0%	2%	0.1%	25%	7%	-16%
50	CSc1ccccc1NC(=O)Cn1ccsc1=N	x	1%	-16%	4%	x	u	x	9%[46.1 µM]
51	Cc1c(Cl)cccc1NC(=O)C1COc2ccccc2O1 (configuration not stated)	x	1%	-12%	-1%	x	x	-13%	x
52	O=C(c1cn(-c2ccccc2)nc1-c1cccc(Br)c1)N1CCOCC1	x	-1%	-11%	4%	x	u	-4%	1%
53	Cc1ccc(OCCSCc2nc3ccccc3[nH]2)cc1	-9%	1%	u	u	-20%	-11%	-89%	0%
